2A StopGo: High Throughput Screening for Foot and Mouth Disease Virus Antivirals; human cells with a luciferase reporter of 2A StopGo recoding; control for the full effect not named in the record; hit rate 1.2% among 410,000; Potency, µM (doses to about 57.9 µM), for the others: at the top dose signal change, negative = less light; active = well fitted falling curve with a large enough effect; inconclusive = small, poorly fitted or top-dose-only effect; inactive = no such curve, though single readings can be large or run the other way; tested in HEK293T cells; also: % is scaled to controls: 0 for no effect and ±100 for the full control effect; nearly all actives have a fitted effect of over 45% in size; luciferase light after 4 h
NS1 inh: qHTS Assay for Inhibitors of Influenza NS1 Protein Function | S. cerevisiae slowed by influenza A NS1, growth recovery by OD600 | Potency, µM (titrated, usually from 46.1 µM), without a hit: top-dose activity, positive = more growth | hit rate 0.4% among 270,000 | AID 2326, 2010; also: actives are rising curves; nearly all actives have a fitted effect of over 50% in size
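Read-out: OD600 growth recovery of NS1-expressing budding yeast. Cells grown overnight at 30C in -URA glucose medium, washed, resuspended and diluted 1:100 in 2% galactose assay medium, pH 6.0. Same strain lacking NS1 served as positive control.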
Lassa entry inh: qHTS for Inhibitors of binding or entry into cells for Lassa Virus; Potency, µM (highest dose often 37.9 µM), for inactives: top-dose activity change, negative = inhibition, hits mostly inhibitors; hit rate 1.2% among 300,000; Lassa virus pseudotype entry inhibition, cell reporter; control for the full effect not named in the record; active means well fitted inhibition curve with a large enough effect; inconclusive means small, poorly fitted or top-dose-only effect, or effect the other way; inactive means flat fitted curve, though single readings scatter; tested in HEK293 cells; also: % is scaled to controls: 0 for no effect and ±100 for the full control effect; nearly all actives have a fitted effect of over 50% in size; luciferase read-out
RE007 growth inh: qHTS Assay for Inhibitors of the HIV-1 protein Vpr. S. pombe RE007 Vpr strain, BacTiter-Glo ATP luminescence, 24 h; control for the full effect not named in the record. Potency, µM (doses to about 92.2 µM), without a hit: top-dose activity change, negative = less growth. AID 651644, 2012. hit rate 0.21% among 360,000; active = well fitted falling curve with a large enough effect; inconclusive = small, poorly fitted or top-dose-only effect; inactive = no such curve, though single readings can be large or run the other way;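 also: % is scaled to controls: 0 for no effect and ±100 for the full control effect; nearly all actives have a fitted effect of over 50% in size; the assay follows cell death caused by Vpr and the record does not say whether a fall means rescue or toxicity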
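Fission yeast RE007 carrying one integrated HIV-1 vpr copy, seeded at OD 0.01 in PMG+AL medium with 23 nL pinned compound. Grown 24 h at 30 degrees; viability read by BacTiter-Glo luminescence after 5 min.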
Cruzain noTriton: qHTS Assay for Promiscuous and Specific Inhibitors of Cruzain (without detergent) | Potency, µM, for the others: max response, negative = inhibition, hits mostly inhibitors | Cruzipain (Trypanosoma cruzi), P25779 | purified cruzain, Z-FR-AMC fluorescence, no detergent | hit rate 2.3% among 200,000 | AID 1476, 2009; active = well fitted curve in the direction sought with a large enough effect; inconclusive = small, poorly fitted or top-dose-only effect, or another doubt; inactive = no such curve, though single readings can be large; an effect the other way counts as inactive or inconclusive;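 also: plate controls were enzyme without inhibitor for no effect and buffer without enzyme for full effect; nearly all actives have a fitted effect of over 40% in size; top concentration of the series not given in the record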
Target sequence (P25779 123-467 limits assumed): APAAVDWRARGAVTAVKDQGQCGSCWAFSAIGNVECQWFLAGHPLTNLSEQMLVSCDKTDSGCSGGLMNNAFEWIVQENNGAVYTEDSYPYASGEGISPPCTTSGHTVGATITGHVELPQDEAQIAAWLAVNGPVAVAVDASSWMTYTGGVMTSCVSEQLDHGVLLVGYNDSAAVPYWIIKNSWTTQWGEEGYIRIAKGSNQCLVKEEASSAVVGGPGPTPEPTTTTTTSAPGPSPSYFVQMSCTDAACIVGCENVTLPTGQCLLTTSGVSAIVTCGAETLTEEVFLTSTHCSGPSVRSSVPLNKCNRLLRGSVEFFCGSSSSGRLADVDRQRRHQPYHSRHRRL
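Detergent-free condition (0.00005% Triton X-100) in acetate buffer pH 5.5 with DTT. 1.5 nM enzyme and compound were pre-mixed 15 min, then 2 uM Z-FR-AMC substrate added; reaction progress from fluorescence change between first and third reads (60 s).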
Cruzain Triton: qHTS Assay for Promiscuous and Specific Inhibitors of Cruzain (with detergent) | Cruzipain (Trypanosoma cruzi), P25779 | purified cruzain, Z-FR-AMC fluorescence, 0.01% Triton | Potency, µM, for the others: max response, negative = inhibition, most hits filed as inhibitors | hit rate 0.43% among 200,000; active = well fitted curve in the direction sought with a large enough effect; inconclusive = small, poorly fitted or top-dose-only effect, or another doubt; inactive = no such curve, though single readings can be large; an effect the other way counts as inactive or inconclusive;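 also: plate controls were neutral wells for no effect and buffer without enzyme for full effect; nearly all actives have a fitted effect of over 40% in size; top concentration of the series not given in the record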
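Purified cruzain (1.5 nM final) was preincubated with compounds for 15 min at room temperature in 100 mM sodium acetate pH 5.5, 5 mM DTT, 0.01% Triton X-100. Reaction started with 2 uM Z-FR-AMC; AMC fluorescence change over 60 s gave activity.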
MARV entry inh: qHTS for inhibitors of binding or entry into cells for Marburg Virus; Marburg virus pseudotyped entry inhibition, cell reporter; control for the full effect not named in the record; about a third of the inactives were read at about 46 µM; Potency, µM (doses to about 37.8 µM), for the others: at the highest dose activity change, negative = inhibition, actives largely listed as inhibitors; hit rate 1.8% among 300,000; AID 540276, 2011; active = well fitted inhibition curve with a large enough effect; inconclusive = small, poorly fitted or top-dose-only effect, or effect the other way; inactive = flat fitted curve, though single readings scatter; tested in HEK293 cells; about a fifth of its hits are not listed in these tables; also: % is scaled to controls: 0 for no effect and ±100 for the full control effect; luciferase read-out
SARS PLP yeast: qHTS of Yeast-based Assay for SARS-CoV PLP | S. cerevisiae expressing SARS-CoV PLpro, growth rescue; control for the full effect not named in the record | Potency, µM (titrated, usually from 32.9 µM), without a hit: top-dose activity, positive = growth rescue | hit rate 0.19% among 330,000; also: 0% is about no effect; nearly all actives have a fitted effect of over 55% in size; growth read by luminescence after 48 h
Numbers without * were called inactive; ? = inconclusive; . = not tested or not shown; & = joins results of further samples; [ ] = another dose, or the depositor's remark. Unless noted, calls follow the shape of the dose curve; as a rule, active means well fitted rising curve with a large enough effect; inconclusive means small, poorly fitted or top-dose-only effect; inactive means no such curve, though single readings can be large or run the other way. Potency is read from the fitted curve at half-maximal effect. Compounds as they come; 4.5% or so of the library scored in one or more.

A first look, 2 compounds:
canonical_smiles	2A StopGo	NS1 inh	Lassa entry inh	RE007 growth inh	Cruzain noTriton	Cruzain Triton	MARV entry inh	SARS PLP yeast
COCC(C)n1c(SCc2ccc(C(=O)OC)cc2)nc2ccccc2c1=O (centres undefined)	?	-56%	.	2%	.	.	?	-9%
CCCCC12CN3CC(C)(CN(C1)C31C(=O)N(C)c3ccc(C)cc31)C2=O (centres undefined)	-17%	-13%	0%	9%	-8%	-1.7%	-5%	12%

This part in full, from the start:
canonical_smiles	2A StopGo	NS1 inh	Lassa entry inh	RE007 growth inh	Cruzain noTriton	Cruzain Triton	MARV entry inh	SARS PLP yeast
COCC(C)n1c(SCc2ccc(C(=O)OC)cc2)nc2ccccc2c1=O (centres undefined)	?	-56%	.	2%	.	.	?	-9%
CCCCC12CN3CC(C)(CN(C1)C31C(=O)N(C)c3ccc(C)cc31)C2=O (centres undefined)	-17%	-13%	0%	9%	-8%	-1.7%	-5%	12%
CONc1nc(NC(C)(C)C)nc(OCC#N)n1	-9%	-4%	1%	-3%	-7%	-3.3%	14%	-7%
O=C(Nc1ccc(F)cc1)Nc1csc2c1CCCC2	11%	.	.	.	1%	-11%	7%[46.1 µM]	.
O=C(C1=C[C@@H](c2ccccc2)C[C@@H](OCc2ccc(CO)cc2)O1)N1CCOCC1	-9%	1%	.	4%	.	.	.	-1%
COc1ccc(-c2oc(NC(C)=O)c(C#N)c2-c2ccc(OC)cc2)cc1	-11%	5%	7%	2%	16%	-8.7%	-1%	1%
CCOC(=O)N1CCN(C(=O)COc2ccc(Br)cc2)CC1	0%	-18%	-5%	-6%	4%	2.4%	1%	1%
COC(=O)c1ccc(CSCC(=O)Nc2ccccc2)cc1	-1%	-6%	.	5%	.	.	3%[46.1 µM]	-1%
O=C(CN(CCc1ccccc1)S(=O)(=O)c1ccc(Br)cc1)NCc1ccc(Cl)cc1	12%	.	-20%[46.1 µM]	.	3%	3.2%	.	.
Nc1nc(SCC(=O)NCCN2CCOCC2)nc2sc3c(c12)CCC3	-10%	13%	15%	4%	0%	-5.8%	6%	24%
CC(=O)Nc1ccc(S(=O)(=O)N2CCN(CCCOc3ccccc3Cl)CC2)cc1	12%	2%	22%	0%[3.69 µM]	6%	-1.1%	21%	2%
COc1ccc(/C=N/NC(N)=S)cc1OC(=O)c1ccccc1	-6%	12%	0%	0%	?	-28%	?	11µM*
CCC1Oc2ccccc2N(CC(=O)NCc2ccco2)C1=O (centres undefined)	0%	-5%	.	10%	.	.	.	24%
COc1ccc(NS(=O)(=O)c2cc(NC(=O)c3cccs3)ccc2N2CCCC2)cc1	80%[activator]	?	?	2%	?	-4.1%	?	7%
CC1=C(c2ccc(C)cc2)S(=O)(=O)N(Cc2ccc(C(=O)Nc3ccccc3C)cc2)C1=O	0%	.	?	.	?	-3.6%	.	.
Cc1ccc(C(=O)Nc2ccc(S(=O)(=O)Nc3onc(C)c3C)cc2)cc1	18%	.	-3%[46.1 µM]	.	-5%	-0.7%	.	.
Cc1cccc(-c2noc(-c3cccnc3NCc3ccc(Cl)cc3)n2)c1	20%	.	-2%[46.1 µM]	.	6%	-5.4%	4%[46.1 µM]	.
O=C(NNC(=O)c1n[nH]c2ccccc12)c1ccccc1	22%	.	?	4%	.	.	28%	-5%
O=C(O)/C=C/C(=O)Nc1ccc2c(c1)NC(=O)CO2	-7%	3%	6%	-15%	.	.	7%[46.1 µM]	1%
Cc1ccc(NC(=O)CCC(=O)c2cccs2)c(O)c1	50%[activator]	-30%	.	-19%	.	.	.	-1%
Cc1cc(/C=C(\C#N)C(N)=O)c(C)n1-c1ccc(N2CCOCC2)c([N+](=O)[O-])c1	?	-41%	-23%	-6%	6%	-8.4%	?	7%
Cc1ccc(-c2cn(-c3ccccc3)c3[n+]2CCCS3)cc1	10µM*	15%&-2%	?	2%&10%	2%&-9%	7.5%&-2.1%	?	2%&-14%
CCOC(=O)C1CCN(c2ncnc3c2cnn3-c2ccc(OC)cc2)CC1	-26%	-5%	-19%	-6%	5%	-9.7%	-1%	-2%
CN1CCN(C(=O)CCN2C(=O)/C(=C\c3ccc(Cl)cc3)SC2=S)CC1	-19%	-6%	.	-4%	.	.	.	-2%
CCC(=O)NC1=C(NC(C)c2ccccc2)C(=O)c2ccccc2C1=O (centres undefined)	-14%	-3%	6%	-12%	-19%	-3.3%	1%	-4%

The list goes on:
canonical_smiles	2A StopGo	NS1 inh	Lassa entry inh	RE007 growth inh	Cruzain noTriton	Cruzain Triton	MARV entry inh	SARS PLP yeast
CS(=O)(=O)N(CC(=O)N1CCCC1)Cc1ccc(F)cc1	4%	4%	.	0%	.	.	.	1%
Cn1nnnc1SCC(=O)Nc1cc(C(F)(F)F)ccc1N1CCOCC1	-2%	.	-8%[46.1 µM]	-15%	.	.	6%[46.1 µM]	0%
COc1cccc(N2CCCn3c2nc2c3c(=O)n(CCN3CCOCC3)c(=O)n2C)c1	.	-2%	.	.	-1%	5.6%	-3%	-1%
Cc1ccc2c(c1)N(CC(=O)N1CCCC1)C(=O)c1cccnc1O2	-11%	-6%	.	-7%	.	.	.	3%
Cc1cc2oc(=O)cc(CN3CCOCC3)c2c(C)c1Cl	-8%	-34%	.	11%	.	.	.	1%
CCOC(=O)c1ccccc1C(=O)N1CCOCCOCCOCC1	-10%	27%	5%	3%	10%	-0.8%	-4%[46.1 µM]	17%
CC(C)(C)c1nnc(NC(=O)c2cccnc2)s1	23%	-3%	.	-7%	.	.	.	0%
O=C(NC1CCCCC1)N1CCN(c2ccc(Cl)cc2)CC1	-20%	-36%	?	4%	.	.	-18%[46.1 µM]	-10%
Cc1nn(C(C)C)c(C)c1[C@@H]1C[C@H]2CN(Cc3cccc(Cl)c3)C(=O)[C@]23CCCN13	5%	-1%	-2%	-11%	.	.	?	2%
Cc1cccc(NC(=O)N2CCc3ccccc3C2)c1C	20%	-12%	2%[46.1 µM]	19%	.	.	?	-3%
CCCCOc1ccc(C(=O)N/C(=C/C=C/c2ccccc2)C(=O)NCCCO)cc1	-22%	4%	-2%	2%	?	-14%	-13%	9%
CCc1ccc(NC(=O)C2CCN(S(=O)(=O)c3c(C)noc3/C=C\c3ccc(OC)cc3)CC2)cc1	?	.	29%[46.1 µM]	.	-1%	-2.7%	?	.
COc1cc(NC(=O)c2ccc3c(c2)C(=O)N(CCC(C)C)C3=O)c(C(=O)O)cc1OC	-17%	11%	.	12%	.	.	.	6%
CCC(=O)Nc1sc2c(c1C(=O)Nc1ccc(Br)cc1)CCCCC2	-10%	.	1%[46.1 µM]	.	8%	-3.5%	.	.
CCN(CC(=O)Nc1c(F)cccc1F)C(=O)c1ccc(N2CCCCC2)c([N+](=O)[O-])c1	-21%	2%	7.1µM*	31%	.	.	?	-2%
O=C(CCl)Nc1ccc(S(=O)(=O)NC2=NCCCCC2)cc1	32µM*	.	?	-10%	.	.	?	-8%
CCN1CCN(Cc2cc(=O)oc3ccc(Cl)cc23)CC1	-11%	1%	-12%	1%	-2%	0.7%	-4%[46.1 µM]	-2%
COc1ccc(NC(=O)CCCNC(=O)Cn2cnc3sc4c(c3c2=O)CCCC4)c(OC)c1	17%	-4%	1%	26%	.	.	-11%[46.1 µM]	1%
NCCCC[C@@H]1NC(=O)[C@H](CCC(=O)O)NC(=O)c2cc([N+](=O)[O-])cc(I)c2OCC[C@@H](C(N)=O)NC1=O	-13%	?	1%	-12%	9%	-2.7%	-5%	24%
Cc1cc(C)n(/C(=C/N(C)C)C(=O)c2ccccc2)n1	4%	.	13%[46.1 µM]	6%	.	.	?	0%
Fc1ccccc1-c1nc(NCCCN2CCOCC2)c2ccccc2n1	-14%	12%	?	-10%	2%	-3.3%	?	24%
CCc1cccc(NC(=O)Nc2csc3c2CCCC3)c1	0%	.	.	.	?	7.6%	?	.
O=C(CCCCn1c(=O)c2ccccc2n(CC(=O)Nc2cccc(F)c2)c1=O)NCCc1ccccc1	0%	.	-17%[46.1 µM]	.	2%	-3.1%	?	.
COc1ccc2c(c1)C1=NN(/C(C)=C/C(C)=O)C(c3cccc(F)c3)C1CC2 (centres undefined)	18%	3%	-5%	-10%	-23%	-8.7%	16%	21%
Cc1ccccc1NS(=O)(=O)c1cccc2nonc12	-7%	12%	.	-10%	.	.	.	-3%

Other records:
canonical_smiles	2A StopGo	NS1 inh	Lassa entry inh	RE007 growth inh	Cruzain noTriton	Cruzain Triton	MARV entry inh	SARS PLP yeast
CCOC(=O)C(NC=O)(NC(C)(C)C)C(=O)OCC	-13%	6%	24%	19%	-11%	3.8%	20%&20%[46.1 µM]	-4%
Nc1ncnc2sc3c(c12)CCNC3	-20%	3%	.	8%	.	.	.	0%
Cn1c(=O)oc2cc(S(=O)(=O)NC(Cc3ccccc3)C(=O)Nc3ccc(F)c(Cl)c3)ccc21 (centres undefined)	2%	.	?	.	-14%	-1.0%	?	.
Cc1ccc(C(=O)Nc2cccnc2)cc1S(=O)(=O)N1CCCC1	2%	5%	2%	1%	.	.	4%	-2%
O=C(COC(=O)CCc1ccccc1)Nc1cc(S(=O)(=O)N2CCOCC2)ccc1N1CCCC1	-11%	-8%	20%	3%	.	.	20%[46.1 µM]	-4%
Cc1nonc1NC(=O)CSc1ccc(-c2ccccc2)nn1	-5%	-28%	6%	-12%	6%	3.7%	-18%	-8%
